YjeE inh = displaces an ADP probe from E. coli YjeE (TsaE) | actives 0.05% (n = 71,000) | purified YjeE, fluorescence polarisation of a bound ADP probe | P0AF67 | Potency, µM; active = well fitted falling curve; inconclusive = weaker or top-dose-only fall, or a rising curve; inactive = flat or poorly fitted curve;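 also: top concentration of the series not given in the record; excess ADP was the control for the full effect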
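Purified YjeE (10 uM) with BODIPY Texas Red-labeled ADP probe (2 uM); compounds pin-transferred, 15 min at room temperature. Binding inhibition read as decreased fluorescence polarization; ADP titration as control.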
Bst PK mod = modulators of Bacillus stearothermophilus pyruvate kinase | partly purified Bacillus stearothermophilus pyruvate kinase, luminescence ATP production; ribose 5-phosphate activator present at AC10 | Potency, µM | actives 1.2% (n = 51,000) | AID 361; in the data active means potency below about 11 µM; inconclusive means mostly about 12 µM to 25 µM; inactive means weaker than that;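 the screen sought inhibitors and activators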;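 also: potency is read from the fitted curve at half-maximal effect; scaled between full activation by ribose 5 phosphate and full inhibition by luteolin; about four in five hits inhibit and the cells do not say which; series up to 57 µM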
Starred values were filed as active, the others as inactive. These rows are one share of the data. The share of hits here may be higher or lower than overall.

A first look (17 entries):
For CCN1C[C@]2(C)CC[C@H](O)[C@@]34[C@@H]5CC6[C@@H](OC)C[C@@](O)([C@@H]5[C@@H]6O)[C@H](C[C@@H]23)[C@H]14 the results were YjeE inh inactive.
For c1ccc(C[N+]23CN4CN(CN(C4)C2)C3)cc1 the results were YjeE inh inactive.
Screening CCOC(=O)N1CCN(C(C)C(=O)c2c[nH]c3ccccc23)CC1 (stereo not drawn) returned YjeE inh inactive and Bst PK mod >57.
Screening Clc1cccc(Cl)c1Cl returned YjeE inh inactive.
`COc1ccc(NC(=O)N2CCC3(CC2)CCN(C(=O)Oc2ccccc2)CC3)cc1` gave YjeE inh inactive.
For CC1(C)C(c2ccccc2)=NC(c2cccnc2)=[N+]1[O-] the results were YjeE inh inactive.
O=c1cccc2n1CC1CC2CN(C(c2ccccc2)c2sc3ncnn3c2O)C1 (stereo not drawn) was read as YjeE inh inactive.
`COc1cc2c(cc1OC)C(C(=O)N1CCC3(CC1)OCCO3)C(c1ccccc1F)N(C)C2=O` (stereo not drawn) gave YjeE inh inactive and Bst PK mod >57.
For CCc1nnc(NC(=O)CCc2nc(C3=CCN(C)CC3)no2)s1 the results were YjeE inh inactive and Bst PK mod >57.
CCCC[N+](=O)[O-] was read as YjeE inh inactive.
Screening O=C(Oc1ccccc1)N1CCC2(CCN(Cc3ccccc3)CC2)CC1 returned YjeE inh inactive.
Screening CCOP(=S)(OCC)SCSC(C)(C)C returned YjeE inh inactive.
For Cc1ccccc1O the results were YjeE inh inactive.
`C[C@@H]1O[C@H](O[C@H]2C[C@@H](O)[C@@]3(CO)[C@H]4[C@@H](O)C[C@]5(C)[C@@H](C6=CC(=O)OC6)CC[C@]5(O)[C@H]4CC[C@]3(O)C2)[C@@H](O)[C@H](O)[C@@H]1O` gave YjeE inh inactive.
CC(=O)C1C2c3ccccc3OC1(C)N=c1s/c(=C/c3cn(C)nc3C)c(=O)n12 (stereo not drawn) was read as YjeE inh inactive and Bst PK mod >57.
O=C(Oc1ccccc1)N1CCC2(CC1)CCN(C(c1ccccc1)c1ccccc1)CC2 was read as YjeE inh inactive.
Screening CC(C)(C)NC[C@@H](O)COc1cccc2[nH]c(C#N)cc12 returned YjeE inh inactive.

The list itself, from the start:
For CCN1C[C@]2(C)CC[C@H](O)[C@@]34[C@@H]5CC6[C@@H](OC)C[C@@](O)([C@@H]5[C@@H]6O)[C@H](C[C@@H]23)[C@H]14 the results were YjeE inh inactive.
For c1ccc(C[N+]23CN4CN(CN(C4)C2)C3)cc1 the results were YjeE inh inactive.
Screening CCOC(=O)N1CCN(C(C)C(=O)c2c[nH]c3ccccc23)CC1 (stereo not drawn) returned YjeE inh inactive and Bst PK mod >57.
Screening Clc1cccc(Cl)c1Cl returned YjeE inh inactive.
`COc1ccc(NC(=O)N2CCC3(CC2)CCN(C(=O)Oc2ccccc2)CC3)cc1` gave YjeE inh inactive.
For CC1(C)C(c2ccccc2)=NC(c2cccnc2)=[N+]1[O-] the results were YjeE inh inactive.
O=c1cccc2n1CC1CC2CN(C(c2ccccc2)c2sc3ncnn3c2O)C1 (stereo not drawn) was read as YjeE inh inactive.
`COc1cc2c(cc1OC)C(C(=O)N1CCC3(CC1)OCCO3)C(c1ccccc1F)N(C)C2=O` (stereo not drawn) gave YjeE inh inactive and Bst PK mod >57.
For CCc1nnc(NC(=O)CCc2nc(C3=CCN(C)CC3)no2)s1 the results were YjeE inh inactive and Bst PK mod >57.
CCCC[N+](=O)[O-] was read as YjeE inh inactive.
Screening O=C(Oc1ccccc1)N1CCC2(CCN(Cc3ccccc3)CC2)CC1 returned YjeE inh inactive.
Screening CCOP(=S)(OCC)SCSC(C)(C)C returned YjeE inh inactive.
For Cc1ccccc1O the results were YjeE inh inactive.
`C[C@@H]1O[C@H](O[C@H]2C[C@@H](O)[C@@]3(CO)[C@H]4[C@@H](O)C[C@]5(C)[C@@H](C6=CC(=O)OC6)CC[C@]5(O)[C@H]4CC[C@]3(O)C2)[C@@H](O)[C@H](O)[C@@H]1O` gave YjeE inh inactive.
CC(=O)C1C2c3ccccc3OC1(C)N=c1s/c(=C/c3cn(C)nc3C)c(=O)n12 (stereo not drawn) was read as YjeE inh inactive and Bst PK mod >57.
O=C(Oc1ccccc1)N1CCC2(CC1)CCN(C(c1ccccc1)c1ccccc1)CC2 was read as YjeE inh inactive.
Screening CC(C)(C)NC[C@@H](O)COc1cccc2[nH]c(C#N)cc12 returned YjeE inh inactive.
C[C@@]12CC[C@H]3[C@@H](CCC4=CC(=O)CC[C@]43C)[C@H]1CCC2=O was read as YjeE inh inactive.
`C/C=C/CC#N` gave YjeE inh inactive.
Screening Cc1nc2ccc(Cl)cn2c1P(=S)(N1CCOCC1)N1CCOCC1 returned YjeE inh inactive and Bst PK mod >57.
Screening O=C(Nc1cc[c]([Sb](=[O])([OH])[OH])cc1)c1ccccc1 returned YjeE inh inactive.
CCOc1ccccc1-n1c(O)c(C=Nc2c(C)n(C)n(-c3ccccc3)c2=O)c(=O)[nH]c1=O was read as Bst PK mod >26.
Screening O=C(c1ccncc1)N1CCC2(CC1)CN(Cc1ccccc1)C2 returned YjeE inh inactive.
For CC(C)OS(C)(=O)=O the results were YjeE inh inactive.
`C#CCN(C)[C@H](C)Cc1ccccc1` gave YjeE inh inactive.
Screening O=C(Nc1cccc(F)c1)N1CC2(CCN(C(=O)Oc3ccccc3)CC2)C1 returned YjeE inh inactive.
CC(C)NC[C@H](O)c1ccc(N)c(C#N)c1 was read as YjeE inh inactive.
CC12CCCCC1N(O)CN2O (stereo not drawn) was read as YjeE inh inactive and Bst PK mod >57.
C[C@@H]1CCC/C=C\[C@H]2C[C@H](O)C[C@@H]2[C@H](O)/C=C\C(=O)O1 was read as YjeE inh inactive.
Screening CCN(CC)CCn1ncc2c(N)ncnc21 returned YjeE inh inactive.
`CCOc1ccc(Cc2c(O)[nH]c(=O)[nH]c2=O)cc1` gave Bst PK mod >26.
Fc1ccccc1N1CCN(Cc2ccc3c(c2)OCO3)CC1 was read as YjeE inh inactive.
Screening [N-]=[N+]=CC(=O)CC[C@H](N)C(=O)O returned YjeE inh inconclusive.
Screening C=C(C)c1ccccc1 (tested in a mixture with another compound) returned YjeE inh inactive.
O=C(CCCN1CCC2(CC1)C(=O)N(CCc1ccc(N=C=S)cc1)CN2c1ccccc1)c1ccc(F)cc1 was read as YjeE inh inactive.
For CCOP(=S)(OCC)SCOC(=O)NCC(=O)OC the results were YjeE inh inactive.
Screening O=C(COc1ccc(Cl)cc1)NC1CN2CCC1CC2 (stereo not drawn) returned YjeE inh inactive and Bst PK mod >57.
`CCCCSP1(=S)NCCCN1` gave Bst PK mod >26.
`CCCN(CCC)[C@@H]1CCc2c(OC)cccc2[C@@H]1C` gave YjeE inh inactive.
For Cn1c2ccccc2c2c(C(=O)N3CCC4(CC3)OCCO4)cn(C3CCCC3)c(=O)c21 the results were YjeE inh inactive and Bst PK mod >57.
Screening CC[C@]1(c2cccc(O)c2)CCCCN(C)C1 returned YjeE inh inactive.
`CNP1(NC)=NC(C(F)(F)F)=NC(C(F)(F)F)=N1` gave YjeE inh inactive and Bst PK mod >57.
`C=CCc1ccc(OC)cc1` gave YjeE inh inactive.
For O=[N+]([O-])c1cc(-c2ccc([As](=O)(O)O)cc2)ccc1[As](=O)(O)O the results were YjeE inh inactive.
For CN1C[C@H](C(=O)N[C@@]2(C)O[C@@]3(O)[C@H]4CCCN4C(=O)[C@@H](Cc4ccccc4)N3C2=O)C=C2c3cccc4[nH]cc(c34)C[C@@H]21 the results were YjeE inh inactive.
Screening Clc1cccc(SC2CCNCC2)n1 returned YjeE inh inactive.
Screening COc1ccc2c(c1)[C@]13CCCC[C@@H]1[C@H](C2)NCC3 returned YjeE inh inactive.
Screening CCOC(=O)C(O)(c1ccc(N(CC)S(=O)(=O)c2ccccc2)cc1)C(F)(F)F (stereo not drawn) returned YjeE inh inactive and Bst PK mod >57.
NCCc1ccc(S(=O)(=O)O)cc1[N+](=O)[O-] was read as YjeE inh inactive.
For CCC1=C(C)C(N2CCOCC2)=NP(N2CCOCC2)(N2CCOCC2)=N1 the results were YjeE inh inactive and Bst PK mod >57.
Screening CCCCC(CC)COC(=O)c1ccc(C(=O)OCC(CC)CCCC)c(C(=O)OCC(CC)CCCC)c1 (stereo not drawn) returned YjeE inh inactive.
For CC(C)N[C@@H](C)Cc1ccc(I)cc1 the results were YjeE inh inactive.
For CN1CCc2cc(O)cc3c2[C@H]1Cc1ccc(O)c(O)c1-3 the results were YjeE inh inactive.
Screening COc1cc2c(cc1OC)[C@@]13CCN4C=C5CCO[C@H]6CC(=O)N2[C@@H]1[C@@H]6[C@H]5C[C@H]43 returned YjeE inh inactive.
COc1cccc(CN2CCN(C(=O)COc3ccc4ccccc4c3)CC2)c1 was read as Bst PK mod >26.
`COc1ccc(CN2CCN(c3ccccc3F)CC2)c(OC)c1` gave YjeE inh inactive.
CC(=NCCN1CCCCC1)c1c(O)[nH]c(=O)[nH]c1=O was read as YjeE inh inactive and Bst PK mod >57.
Screening Cc1cccc(CN(C)C)c1OC(=O)N(C)C returned YjeE inh inactive and Bst PK mod >57.
`N#CCCCl` gave YjeE inh inactive.
COc1cc2c(cc1O)-c1c(O)c(OC)cc3c1[C@H](C2)N(C)CC3 was read as YjeE inh inactive.
Screening COC(=O)C(c1ccccc1)C1CCCCN1 (stereo not drawn) returned YjeE inh inactive.
For c1cc2cc(c1)C[n+]1ccc(c3ccccc31)NCc1ccc(cc1)CNc1cc[n+](c3ccccc13)C2 the results were YjeE inh inactive.
Screening O=C(O)c1cc[c]([Hg][Cl])cc1 returned YjeE inh inactive.
`CCN1C[C@]2(COC(=O)c3ccccc3N3C(=O)C[C@H](C)C3=O)CC[C@H](OC)[C@@]34[C@@H]5C[C@H]6[C@H](OC)[C@H]5[C@](O)(C[C@@H]6OC)[C@@](O)([C@@H](OC)[C@@H]23)[C@@H]14` gave YjeE inh inactive.
Cc1cc(N2C(=O)C3CCCN3C2c2ccc(Cl)c(Cl)c2)no1 (stereo not drawn) was read as YjeE inh inactive.
NCCCP(=O)(O)O was read as YjeE inh inactive.
Screening COc1cc2c(cc1OC)[C@]13CC[N@+]4(C)CC5=CCO[C@H]6CC(=O)N2[C@@H]1[C@@H]6[C@@H]5C[C@]34O returned YjeE inh inactive.
For c1ccc(C2NCc3ccccc3-n3cccc32)cc1 (stereo not drawn) the results were YjeE inh inactive.
Screening O=c1cccc2n1C[C@@H]1C[C@H]2CN2CCCC[C@H]12 returned YjeE inh inactive.
Screening O=C(NCC(c1cccnc1)N1CCN(c2ccc(F)cc2)CC1)Oc1ccccc1 (stereo not drawn) returned YjeE inh inactive and Bst PK mod >57.
S=P(C1CCCCC1)(C1CCCCC1)[C@H](c1cccnc1)N1CCCC1 was read as YjeE inh inactive.
Cc1ccc(C(=O)C2CN3CCC2CC3)cc1 (stereo not drawn) was read as YjeE inh inactive and Bst PK mod >57.
O=C(O)[C@H]1[C@H]2CN[C@H](C(=O)O)[C@H]21 was read as YjeE inh inactive.
Screening COc1ccc(-n2c(SC)nc3ccccc3c2=O)cc1 returned Bst PK mod >11.
O=c1[nH]c(O)c(C=NC2CCN(Cc3ccccc3)CC2)c(=O)[nH]1 was read as Bst PK mod >26.
Cc1cccc(-n2c(CN3C(=O)c4ccccc4C3=O)nc3ccccc3c2=O)n1 was read as YjeE inh inactive and Bst PK mod >57.
For OCCOCC#CCN1CCOCC1 the results were Bst PK mod >26.
For CCOC(=O)N(CC)c1ccc(C(O)(C(=O)OC)C(F)(F)F)cc1 (stereo not drawn) the results were YjeE inh inactive and Bst PK mod >57.
CCCc1cc2c(n1Cc1cccc(Cl)c1)C(C)C1CN(C(=O)c3ccccc3)C(C)(C(=O)OC)C21 (stereo not drawn) was read as YjeE inh inactive.
Screening C=C[C@@H]1CN2CC[C@@H]1C[C@H]2[C@H](O)c1ccnc2ccccc12 returned YjeE inh inactive.
O=NN(CCO)CCO was read as YjeE inh inactive.
`CC(NC(C)(C)C)C(=O)c1cccc(Cl)c1` (stereo not drawn) gave Bst PK mod >26.
COCc1c(CN)cnc(C)c1N was read as YjeE inh inactive and Bst PK mod >57.
COc1ccc(CCN(C)Cc2ccncc2)cc1OC was read as YjeE inh inactive and Bst PK mod >57.
Screening CCC(=O)N1CC(=O)Nc2ccc(Cl)cc2C1c1ccc(F)cc1 (stereo not drawn) returned YjeE inh inactive and Bst PK mod >57.
CN1CCC(O)(c2ccccc2)C(C(=O)c2ccccc2)C1 (stereo not drawn) was read as YjeE inh inactive.
Screening O=c1[nH]c(=O)n(Cc2ccco2)c(O)c1C=NCc1ccc2c(c1)OCO2 returned Bst PK mod >26.
For OC12CCCCC1C(c1ccccc1)NCC2 (stereo not drawn) the results were YjeE inh inactive and Bst PK mod >57.
For CN1CCC2=C[C@H](O)[C@@H]3OC(=O)c4cc5c(cc4[C@H]3[C@H]21)OCO5 the results were YjeE inh inactive.
`O=P1(NCc2ccco2)COc2ccccc2OC1` gave YjeE inh inactive and Bst PK mod >57.
Clc1cc(Cl)c(Cl)c(Cl)c1 was read as YjeE inh inactive.
Screening CN(C)C(=O)Nc1ccc(Cl)cc1 returned YjeE inh inactive.
Cc1ccc(-c2nc3ccccc3c(=O)n2-n2cccc2)cc1 was read as YjeE inh inactive and Bst PK mod >57.
CC(C)Oc1cccnc1N(C)C1CCN(Cc2ccccc2)CC1 was read as YjeE inh inactive.
`C/C=C1\C[N@@+]2(C)CC[C@@]34C(=C(C=O)[C@H]1C[C@H]32)Nc1ccccc14` gave YjeE inh inactive.
`CCN1CCN(C(=O)COc2ccc(S(=O)(=O)N(C)Cc3ccccc3)cc2)CC1` gave YjeE inh inactive and Bst PK mod >57.
`CCCCNC(=O)n1c(NC(=O)OC)nc2ccccc21` gave YjeE inh inactive.
`CN1CCN(c2ccc(N)c(N3CCN(C)CC3)c2)CC1` gave YjeE inh inactive and Bst PK mod >57.
